Source: PubChem BioAssay (PCMD)
Calb biofilm kill = mixture kills Candida albicans biofilm cells. C. albicans biofilm persisters + clotrimazole, fluorescence viability; primary screen in compound mixtures of four per well. inhibition, % at 7.6 µM. 0.02% of 120,000 active. AID 1242;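 active means inhibition above 30.3% in the primary screen of four-compound pools, then above 30% when the compound was retested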;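 further: compounds exposed to preformed 24 h biofilms for 48 h; the number belongs to the whole pool; some results filed as inactive read as strong as hits; inactives centre near 12; 0% = biofilm with clotrimazole alone and 100% = kill control; retested singly at about 60 µM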
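Test system: C. albicans biofilms. Buffer or medium: RPMI/MOPS medium, pH 7.0. Timing: 48 h compound exposure at 37 °C. Technique: Alamar Blue fluorescence. Evaluation: percent inhibition of biofilm viability.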
Numbers without * were called inactive.

SMILES	Calb biofilm kill
CCSc1nc2ccccc2c(=O)n1-c1c(C)n(C)n(-c2ccccc2)c1=O	14
CC(=O)Nc1ccc(SCC(=O)Nc2ccc(Cl)cn2)cc1	21
CC(C)CCN1CCN(Cc2ccc3nsnc3c2)CC1CCO (stereo unspecified)	16
CCC(C)(c1nnnn1-c1c(C)cccc1C)N(N=O)c1cccc(C(F)(F)F)c1 (stereo unspecified)	23
CCc1cccc(C)c1NC(=O)CO/N=C(\N)CC(=O)NC1CCCCC1	6
COC(=O)c1cn(NC(=O)Cc2c(F)cccc2Cl)c(=O)c2ccccc12	17
CCOC(=O)c1ccc(NC(=S)N2CCC(C(N)=O)CC2)cc1	17
N#C/C(=C(/O)COC(=O)c1ccc(Cl)c(S(=O)(=O)N2CCOCC2)c1)c1nc2ccccc2[nH]1	3
CC(C)(C)C(=O)Nc1cccc(C(=O)Nc2cc(C(=O)O)cc(C(=O)O)c2)c1	9
Cc1cccc(-n2nnnc2SCC(=O)Nc2cccc(S(N)(=O)=O)c2)c1	16
COc1ccc(N2CCN(C(=O)CSc3nnc(NC(=O)C4CC4)s3)CC2)cc1	27
Cc1ccccc1OCCNc1cc(N2CCN(CCO)CC2)ccc1[N+](=O)[O-]	11
COc1cccc2c1C(CO)N1C(C#N)C3CC(C(=O)O)C(C1C2)N3C (stereo unspecified)	26
COc1ccc(/C=C/C(=O)NC(=S)NN2CCCCC2c2cccnc2)cc1OC (stereo unspecified)	2
Cc1ccc(OCC(=O)Nc2nnc(C3CCCO3)s2)c(Br)c1 (stereo unspecified)	11
NC(=O)OCC(COC(N)=O)c1ccccc1	11
CC(OC(=O)c1snc(C(=O)NC2CCCCC2)c1N)C(=O)NC1CCCCC1 (stereo unspecified)	-7
Cc1cc(CNC(=S)Nc2cccc(Cl)c2Cl)nn1C	6
NC(=O)c1sc2nc3c(c(-c4ccccc4)c2c1N)CCC3	4
COc1cc2c(cc1OC)-c1cc(N3CCc4ccccc43)nc(=O)n1CC2	10

Single entries from the results shown.
CCOC(=O)c1ccc(NC(=S)N2CCC(C(N)=O)CC2)cc1 – Calb biofilm kill: 17
COC(=O)c1cn(NC(=O)Cc2c(F)cccc2Cl)c(=O)c2ccccc12 – Calb biofilm kill: 17
COc1ccc(N2CCN(C(=O)CSc3nnc(NC(=O)C4CC4)s3)CC2)cc1 – Calb biofilm kill: 27
CC(OC(=O)c1snc(C(=O)NC2CCCCC2)c1N)C(=O)NC1CCCCC1 (stereo unspecified) – Calb biofilm kill: -7
Cc1cc(CNC(=S)Nc2cccc(Cl)c2Cl)nn1C – Calb biofilm kill: 6

More results
SMILES	Calb biofilm kill
COC(=O)c1cc(OC)c(OC)cc1NC(=O)Nc1cccc(C(C)=O)c1	-7
CC(=O)OC1C(N2CCCCC2)c2c(ccc(/C=C/C(=O)N3CCCCC3)c2O)OC1(C)C (stereo unspecified)	10
Cc1ccc(S(=O)(=O)Nc2ccc(N3CCOCC3)nc2)cc1	9
CC(=O)N/C(=C/c1ccc2c(c1)OCO2)C(=O)Nc1ccccc1	16
Cc1ccc(CSCC(=O)NCc2ccco2)cc1	16
CCCCNC(=O)C(Sc1ccccc1)c1ccccc1 (stereo unspecified)	7
CNC(=S)c1cc(C(C)(C)C)c(O)c(C(C)(C)C)c1	14
O=C(CC1SC(=NCCc2ccccc2)N(/N=C/c2cccs2)C1=O)Nc1ccc(Cl)cc1 (stereo unspecified)	15
COc1ccc(C2/C=C\CN(C(=O)c3ccc(C)cc3)[C@H](Cc3ccccc3)C(=O)N2Cc2ccc(F)cc2)cc1 (stereo partly specified)	19
CC(C)c1ccc(NC(=O)NCc2ccc(F)cc2)cc1	9
COC(=O)C1=C(C)N(Cc2ccco2)C(=O)/C1=C\c1ccc(N(C)C)cc1	-3
O=C(O)CC/C(=C\c1cccc(NC(=O)c2ccccc2Cl)c1)c1nc2ccccc2s1	6
CCOC(=O)N/N=C/c1cc(C)n(-c2cccc3ccccc23)c1C	14
O=C(c1ccc(Cl)cc1)c1cc([N+](=O)[O-])ccc1N1CCOCC1	7
NNC(=O)c1cccc(COc2ccc3c(c2)CCC3)c1	-2
C/C(=N\NC(=O)CNC(=O)c1ccncc1)c1ccc(C)cc1	21
CC(C)Oc1ccc(C(=O)NC2(C(F)(F)F)NC(=O)N(CCCc3ccccc3)C2=O)cc1 (stereo unspecified)	15
CC1(C)CC(=O)C(C2=NC3(CCCCC3)Cc3ccccc32)=C(O)C1	23
CCOC(=O)c1cc2nc(-c3ccco3)cc(C(F)(F)F)n2n1	10
COC(=O)C1CCN(C(=O)CSc2nc3ccc(OC)cc3[nH]2)CC1	19
CCCCCCc1cc2cc(C(=O)Nc3ccc(OC)cc3)c(=O)oc2cc1O	19
COc1ccc(C(=O)NC2CCN(C(=S)Nc3ccc(C)cc3)CC2)cc1	6
Cc1ccc(/C=C\c2nccc3c2[nH]c2ccccc23)cc1	12
COc1cccc(C(=O)NN2CC(O)=C(c3nc4ccccc4s3)C2=N)c1	0
O=C(O)c1ccccc1C(=O)N1N=C2/C(=C/c3cccc([N+](=O)[O-])c3)CCCC2C1c1cccc([N+](=O)[O-])c1 (stereo unspecified)	7
COc1cccc(CN(CC2CCCO2)C(=O)c2cc3ccccc3oc2=O)c1 (stereo unspecified)	4
Cc1ccc(N2C(=O)C3C(C2=O)C2C=CC3C23CC3)c([N+](=O)[O-])c1 (stereo unspecified)	15
CCOC(=O)c1ccc(NC(=O)C(=O)NCc2ccc(/C=C(/C#N)C(=O)NCCOC)o2)cc1	13
Cc1c(NC(=O)C(C)OC(=O)/C=C/c2ccco2)c(=O)n(-c2ccccc2)n1C (stereo unspecified)	15
CCC(C)C(=O)NCCc1ccc(S(N)(=O)=O)cc1 (stereo unspecified)	14
C=Cn1c(C(=O)O)ccc1-c1ccc(CC)cc1	12
CC1CC(C)CN(CCCOc2ccccc2[N+](=O)[O-])C1 (stereo unspecified)	17
COc1ccc2c(c1)C(=O)N(c1ccc(C)cc1C)C(=O)C2	4
COC(=O)c1c(NC(=O)C2COc3ccccc3O2)sc2c1CCN(Cc1ccccc1)C2 (stereo unspecified)	21
COc1cc(NC(=O)COC(=O)CSc2cc(C)ccc2C)c(C)cc1[N+](=O)[O-]	10
O=[N+]([O-])c1cc(S(=O)(=O)/N=C(/c2ccccc2)N2CCOCC2)ccc1Cl	4
CC(=O)Cc1cc(O)c2ccccc2c1OC(=O)c1ccc(Br)cc1	14
Cc1ccc(/C=C2/SC(=S)N(c3ccc(S(=O)(=O)Nc4nccs4)cc3)C2=O)cc1	26
O=C(O)CN1C(=O)/C(=C/c2ccsc2)SC1=S	9
CSc1nc(-c2ccccc2)cc(C(F)(F)F)c1C#N	21

Given field by field: 3 of the compounds above.
CC(=O)Cc1cc(O)c2ccccc2c1OC(=O)c1ccc(Br)cc1
  Calb biofilm kill = 14
Cc1ccc(/C=C2/SC(=S)N(c3ccc(S(=O)(=O)Nc4nccs4)cc3)C2=O)cc1
  Calb biofilm kill = 26
O=C(O)CN1C(=O)/C(=C/c2ccsc2)SC1=S
  Calb biofilm kill = 9

New compounds follow
SMILES	Calb biofilm kill
Cc1cc2nccc(-c3ccncc3)n2n1	-9
CCc1ccccc1NC(=O)NC1CC2CCC(C1)N2Cc1ccco1 (stereo unspecified)	10
CCCCN(C)C(=S)Nc1ccsc1C(=O)OC	13
Cn1c(C(=O)c2ccccc2[N+](=O)[O-])nc2ccccc21	6
CCCCOc1ccc2c(c1)/C(=C(\C(Cl)=C(Cl)Cl)[N+](=O)[O-])N2	0
N/C(=N\c1nc2ccccc2o1)NC(=O)/C=C/c1ccccc1	14
CCC(C)(C)n1nnnc1C(c1ccncc1)N1CCC(C)CC1 (stereo unspecified)	12
O=C(COC(=O)c1ccccc1O)Nc1cccnc1Cl	12
Cc1cccc(N2Cc3ccccc3C2=NC(=O)c2ccc(Cl)nc2)c1	13
CCC(C)NC(=O)CN(c1ccc(Cl)c(Cl)c1)S(C)(=O)=O (stereo unspecified)	16
CN(CC(=O)Nc1cccc(S(=O)(=O)NC2=NCCCCC2)c1)Cc1ccc(C(C)(C)C)cc1	5
CN(C)CCNC(=O)C(=O)NCC1OCCN1S(=O)(=O)c1ccc([N+](=O)[O-])cc1 (stereo unspecified)	15
CN1CCC/C1=C/C=C1\SC(=S)NC1=O	14
CC(C)Oc1ccc2c(c1)OC(c1ccccc1)(C(F)(F)F)NC2=O (stereo unspecified)	11
Cc1ccc2c(c1)C1CN(C)CCC1N2C(=O)c1ccccc1NS(=O)(=O)c1cccc(C(F)(F)F)c1 (stereo unspecified)	10
Cc1cc(NS(=O)(=O)c2ccc(NC(=O)c3cccc(OC(F)F)c3)cc2)nc(C)n1	4
O=C(O)CCN1C(=O)C2C3c4ccccc4C(c4ccccc43)[C@@H]2C1=O (stereo partly specified)	29
CCOc1ccc(C(=O)O/N=C(\N)c2ccc([N+](=O)[O-])cc2)cc1OCC	-6
O=C(/C=C/c1ccc(Cl)cc1)NCc1ccco1	-3
COc1ccccc1NS(=O)(=O)c1cccc(NC(=O)Cc2cccs2)c1	10

For convenience, 7 of the compounds above.
SMILES	Calb biofilm kill
CC(C)Oc1ccc2c(c1)OC(c1ccccc1)(C(F)(F)F)NC2=O (stereo unspecified)	11
Cc1ccc2c(c1)C1CN(C)CCC1N2C(=O)c1ccccc1NS(=O)(=O)c1cccc(C(F)(F)F)c1 (stereo unspecified)	10
Cc1cc(NS(=O)(=O)c2ccc(NC(=O)c3cccc(OC(F)F)c3)cc2)nc(C)n1	4
O=C(O)CCN1C(=O)C2C3c4ccccc4C(c4ccccc43)[C@@H]2C1=O (stereo partly specified)	29
CCOc1ccc(C(=O)O/N=C(\N)c2ccc([N+](=O)[O-])cc2)cc1OCC	-6
O=C(/C=C/c1ccc(Cl)cc1)NCc1ccco1	-3
COc1ccccc1NS(=O)(=O)c1cccc(NC(=O)Cc2cccs2)c1	10

Following part
SMILES	Calb biofilm kill
O=C(CNCc1cccs1)Nc1ccc(N2CCCCCC2)cc1	-1
CCC(=O)c1ccc(N2CCCC2)c(F)c1	13
CCCCc1ccc(NC(=S)NCc2cccnc2)cc1	9
Cc1cc(C)c(NC(=O)c2cc(=O)c3ccccc3o2)c(C)c1	-8
COc1ccccc1C(c1nnnn1Cc1ccco1)N1CCN(c2cccc(C)c2C)CC1 (stereo unspecified)	20
O=C1CC(N2CCN(c3ccc(F)cc3)CC2)C(=O)N1c1ccccc1 (stereo unspecified)	15
CC(C)NS(=O)(=O)c1ccc(NC(=O)C(C)Oc2ccc(C(=O)c3ccccc3)cc2)cc1 (stereo unspecified)	10
COc1ccc(COc2cc(-c3cccc(OC)c3)nc3ccc(NC(=O)c4ccc(C)cc4)cc23)cc1	13
O=C1NC2(CCCCC2)C(=O)N1Cc1cc(=O)n2ccsc2n1	9
COc1cc(NC(=O)N[C@@H](Cc2ccccc2)C(=O)O)cc(OC)c1	7
O=C(Nc1ccc(N2CCCC2)c(Cl)c1)c1ccc2c(c1)OCCO2	18
CC(=O)N1CCN(CC(=O)Nc2c(Cl)ccc(C)c2Cl)CC1	7
CC(C)C(NC(=O)c1ccc(C(C)(C)C)cc1)C(=O)OCC(=O)NC(=O)Cc1ccccc1 (stereo unspecified)	6
CCOC(=O)C1(CC2CCCCO2)CCN(Cc2cn[nH]c2-c2cccc(F)c2)CC1 (stereo unspecified)	28
O=c1[nH]c(-c2ccc(Cl)cc2)nc(=S)[nH]1	8
O=C(Nc1cc(S(=O)(=O)N2CCOCC2)ccc1N1CCCC1)c1cccnc1Cl	22
CCCCOC(=O)Nc1ccc2c(C)cc(=O)oc2c1	10
CC1=C(C(=O)OCC2CCCO2)C(c2ccc(C)cc2)C2=C(CC(C)(C)CC2=O)N1 (stereo unspecified)	3
CN(c1ccccc1)S(=O)(=O)c1ccc(Cl)c(C(=O)Nc2nn[nH]n2)c1	-7
COCc1nnc(NC(=O)c2cccc(NC(=O)C(C)C)c2)s1	28
COC(=O)c1ccc(NC(CC(C)C)C(=O)OC)c([N+](=O)[O-])c1 (stereo unspecified)	16
CCCC(=O)N/C(N)=N/c1nc2ccccc2o1	27
O=C(Nc1nncs1)c1cccc(S(=O)(=O)N2CCCCC2)c1	14
CC(C)=CCc1c(O)ccc2c1OC(c1ccc(O)c(O)c1)CC2=O (stereo unspecified)	22
Cc1ccc(Nc2nnc(-c3ccc(N4CCOCC4)c([N+](=O)[O-])c3)c3ccccc23)cc1	11
COC(=O)C1=NN(C(=O)c2cccc(Cl)c2)C(O)(C(C)(C)C)C1 (stereo unspecified)	5
Cc1nc2sc(C(N)=O)c(N)c2c(C)c1CC(=O)c1ccccc1	18
Cn1nccc1C(=O)N/N=C/c1ccccc1[N+](=O)[O-]	6
CN1CCN(S(=O)(=O)c2ccc(Oc3ccc(F)cc3Br)nc2)CC1	10
COc1ccc(CCNCC(=O)Nc2ccc(C)c(S(=O)(=O)N(C)C)c2)cc1	16
CCN(CC)CCN(Cc1cc2ccc(C)c(C)c2[nH]c1=O)C(=S)NCc1ccco1	13
Cc1nc([N+](=O)[O-])cn1-c1nc2ccccn2c1[N+](=O)[O-]	12
COc1ccc(NC(=O)Cn2c(=O)n(-c3ccccc3)c(=O)c3oc4ccccc4c32)c(OC)c1	8
C/C(=N\Nc1ccc(C(=O)c2c(C)cc3ccccn23)cc1[N+](=O)[O-])c1ccc(O)cc1	0
CC1=NN(c2nc3ccccc3[nH]2)C(=O)C1Cc1ccccc1 (stereo unspecified)	18
CC(=O)Nc1nc(-c2ccccc2)c(-c2ccccc2)o1	6
Cc1ccnc(SCc2cc(=O)c(OC(=O)c3ccc(Br)o3)co2)n1	18
COC(=O)CN(c1ccccc1)S(=O)(=O)c1cc(Br)ccc1OC	10
COc1ccc(NC2=C3CCCC=C3N(c3ccc(OC)cc3)C2=O)cc1	18

Not all compounds are listed (hit frequency here may not be typical).
